Screening data (PubChem BioAssay)
GLA inh pH 4.5 = blocks human alpha-galactosidase A at pH 4.5; P06280; purified enzyme, 4-MU-alpha-Gal fluorescence, pH 4.5; activity change, negative = inhibition, % at 105 µM; 230,000 tested, under 10 active; AID 1467; inconclusive = small, poorly fitted or top-dose-only inhibition, or a rising curve; inactive = flat fitted curve, though single readings scatter; no compound was filed as active;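 also: 0% = full activity with enzyme and -100% = basal without enzyme; dose as in the result columns while the protocol names 77 µM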
Target sequence (P06280 whole entry, looked up): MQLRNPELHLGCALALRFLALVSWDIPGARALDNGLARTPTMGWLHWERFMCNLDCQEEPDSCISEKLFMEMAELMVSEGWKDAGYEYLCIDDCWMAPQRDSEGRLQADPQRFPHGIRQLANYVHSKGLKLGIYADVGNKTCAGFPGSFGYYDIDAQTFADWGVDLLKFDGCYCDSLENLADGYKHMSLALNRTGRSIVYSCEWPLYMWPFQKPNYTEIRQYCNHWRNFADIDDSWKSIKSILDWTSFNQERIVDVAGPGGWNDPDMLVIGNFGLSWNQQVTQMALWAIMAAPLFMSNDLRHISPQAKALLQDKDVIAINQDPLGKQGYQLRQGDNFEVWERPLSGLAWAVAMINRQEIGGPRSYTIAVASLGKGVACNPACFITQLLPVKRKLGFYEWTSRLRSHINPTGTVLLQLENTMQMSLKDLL
Rango-impB inh = Rango-importin beta binding inhibition. Rango CFP/YFP FRET sensor + importin beta, 45 min. Potency, µM (series often up to 92.2 µM), for the others: at the highest dose inhibition of complex formation. actives 0.031% (n = 340,000); active = rising FRET ratio curve, often small or poorly fitted; inconclusive = mostly compound fluorescence or quenching in the first reads; inactive = flat curves in all reads;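 also: potency is read from the fitted curve at half-maximal effect; 0% = DMSO wells and 100% = buffer wells lacking importin beta; nearly all actives have a fitted effect of over 15% in size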
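FRET biosensor (snurportin 1 IBB flanked by EYFP and cerulean), 50 nM, with compound 5 min, then 0.125 microM importin beta in PBS, 1 mM DTT, 0.02% Tween-20, 0.1% BSA. CFP/YFP ratio read after 45 min at room temperature; pre-read flags interference.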
Rango release inh = inhibition of RanGTP-driven Rango-importin beta dissociation; actives 0.071% (n = 340,000); O95149+P62826; Biochemical FRET Rango-importin beta, RanGTP-induced dissociation; Potency, µM (series often up to 46.1 µM), for the others: at the highest dose activity change, negative = inhibition; active means falling FRET ratio curve, often poorly fitted, with flat reads before Ran was added; inconclusive means other falling curves, or compound fluorescence or quenching; inactive means flat or rising ratio curve;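 also: potency is read from the fitted curve at half-maximal effect; % of control where 0% means no effect; nearly all actives have a fitted effect of over 45% in size; -100% = wells without RanGTP and RCC1; the record marks most hits as doubtful in a second field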
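Two FRET readings bracket the reaction: one 5 min after compound meets Rango–importin beta, another 45 min after RanGTP-RCC1 (0.6 uM Ran, 0.2 uM RCC1, 2 mM GTP) is added. Only the second defines inhibition.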
miR-21 reporter = raises the signal of a miR-21 reporter. HeLa miR-21 FLuc reporter, luciferase, 48 h. Potency, µM (titrated, usually from 38.3 µM), without a hit: at the top dose reporter change, positive = more light. 340,000 tested, under 10 active. AID 2288; active = well fitted rising curve with a large enough effect; inconclusive = small, poorly fitted or top-dose-only effect; inactive = no such curve, though single readings can be large or run the other way;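 also: % of control where 0% means no effect; miR-21 action dims this reporter so a rising signal means less miR-21 action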
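Using DMEM plus 10% FBS, HeLa miR-21-FLuc cells are incubated with test compounds (final up to about 40uM) for 48 hours; firefly luciferase signal is then imaged following reagent-mediated lysis.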
Numbers without * were called inactive.

CCCCN(CC)C(=O)C1CCC(=O)N(c2ccc(OC)cc2)C1c1ccc(OC)c(OC)c1 (stereo not given) was read as Rango-impB inh 0.7% and Rango release inh -8%.
Screening O=C(NNC(=S)Nc1ccccc1C(F)(F)F)c1ccc(Br)o1 returned GLA inh pH 4.5 5, Rango-impB inh 3.8%, Rango release inh 1% and miR-21 reporter -27%.
Screening CCCN(CCC)S(=O)(=O)c1ccc(C(=O)NCc2ccc3c(c2)OCO3)cc1 returned GLA inh pH 4.5 -5, Rango-impB inh 8.1%, Rango release inh -5% and miR-21 reporter -1%.
`COc1ccccc1CCN1CCCC(CN(C)C(=O)c2ccc3nc[nH]c3c2)C1` (stereo not given) gave Rango-impB inh -0.9%, Rango release inh 6% and miR-21 reporter -3%.
`Cc1cccc2cc(CN(C(=O)c3cccs3)c3ccccc3)c(=O)[nH]c12` gave GLA inh pH 4.5 3, Rango-impB inh -2.2%, Rango release inh 22% and miR-21 reporter 1%.
`O=C(CSc1nc(-c2ccccc2)cc(=O)[nH]1)Nc1ccccn1` gave GLA inh pH 4.5 3, Rango-impB inh -2.7%, Rango release inh -16% and miR-21 reporter 3%.
For Cc1ccc(S(=O)(=O)N2CCN(C(=O)COC(=O)c3ncc(Cl)c(Cl)c3Cl)CC2)c(C)c1 the results were Rango-impB inh 7.0% and Rango release inh 10%.
Cc1ccc(SCc2cn3cccnc3n2)cc1 was read as GLA inh pH 4.5 -5, Rango-impB inh 0.8%, Rango release inh 3% and miR-21 reporter -36%.
CC(C)CNS(=O)(=O)c1cc(C(=O)OCC(=O)c2ccc3c(c2)OCCO3)c(Cl)cc1Cl was read as GLA inh pH 4.5 -6, Rango-impB inh -1.6%, Rango release inh -12% and miR-21 reporter 1%.
For COc1ccccc1C(=O)N/C(=N/c1nc(C)cc(C)n1)Nc1ccccc1 the results were GLA inh pH 4.5 -9, Rango-impB inh 1.3%, Rango release inh -2% and miR-21 reporter -31%.
`Cc1cc(NC(=O)CCc2ccccc2)c([N+](=O)[O-])cc1C` gave GLA inh pH 4.5 -3, Rango-impB inh 1.8%, Rango release inh 11% and miR-21 reporter -30%.
Screening COc1cc2c(cc1OC)CN(C(=O)CN1CCN(S(=O)(=O)c3ccccc3Br)CC1)CC2 returned Rango-impB inh -0.7%, Rango release inh 5% and miR-21 reporter 7%.
`Cn1cnc2cc(NS(=O)(=O)c3ccc(Br)cc3)ccc21` gave GLA inh pH 4.5 8, Rango-impB inh 0.0%, Rango release inh 10% and miR-21 reporter 11%.
Screening Cc1ccc(COCC(CC(C)C)N2CCN(C(=O)c3cccc(C(F)(F)F)c3)CCC2=O)cc1 (stereo not given) returned GLA inh pH 4.5 -13, Rango-impB inh -3.1%, Rango release inh -13% and miR-21 reporter -7%.
`COc1cc(-c2nnc(SCC(=O)Nc3cc(C)on3)n2C)cc(OC)c1O` gave GLA inh pH 4.5 1, Rango-impB inh -3.6%, Rango release inh -8% and miR-21 reporter 1%.
`CCOC(=O)C(C)Sc1ncc(-c2ccccc2)cn1` (stereo not given) gave GLA inh pH 4.5 2, Rango-impB inh -3.7%, Rango release inh 0% and miR-21 reporter -17%.
For Cc1c(C)n(-c2ccccc2)c2ncnc(NCCCN(C)C)c12 the results were Rango-impB inh 0.0%, Rango release inh 9% and miR-21 reporter 1%.
For O=C(C1=NN[C@@H]2C(=O)N(c3cccc(F)c3)C(=O)[C@H]12)C(c1ccccc1)c1ccccc1 the results were GLA inh pH 4.5 -4, Rango-impB inh 4.8%, Rango release inh -21% and miR-21 reporter -3%.
O=C(Nc1cc(Cl)ccc1-n1cncn1)c1ccc([N+](=O)[O-])s1 was read as Rango-impB inh 3.0%, Rango release inh -10% and miR-21 reporter 27%.
Screening CC(Oc1ccc(Cl)cc1Cl)C(=O)NNC(=O)c1ccncc1 (stereo not given) returned Rango-impB inh 0.2% and Rango release inh 0%.
Screening O=C(c1ccc2c(c1)OCCO2)N1CCN(Cc2ccccc2)CC1 returned GLA inh pH 4.5 -1, Rango-impB inh -3.6%, Rango release inh -5% and miR-21 reporter -23%.
`S=C(NNC(=S)Nc1ccccc1)Nc1ccccc1` gave Rango-impB inh -3.2%, Rango release inh 31% and miR-21 reporter -66%.
CC(C)Cn1c(=O)c2ccccc2n2c(SCC(=O)N3c4ccccc4CC3C)nnc12 (stereo not given) was read as GLA inh pH 4.5 1, Rango-impB inh 5.7%, Rango release inh 1% and miR-21 reporter -8%.
Screening O=C(O)COc1ccccc1/C=N/Nc1ccc(S(=O)(=O)Nc2ccc(Cl)cc2)cc1[N+](=O)[O-] returned GLA inh pH 4.5 4, Rango-impB inh inconclusive, Rango release inh inconclusive and miR-21 reporter -4%.
`CCN1C(=O)CC(N2CCN(c3ccc(Cl)cc3)CC2)C1=O` (stereo not given) gave GLA inh pH 4.5 2, Rango-impB inh 1.7%, Rango release inh 0% and miR-21 reporter -2%.
COc1cc(C(=O)OCC(=O)N2CCOCC2)c([N+](=O)[O-])cc1OC was read as Rango-impB inh 0.4%, Rango release inh 22% and miR-21 reporter -1%.
For COc1ccc(NC(=O)CN(C)C(=O)CCCNC(=O)c2ccc(Cl)cc2)cc1 the results were Rango-impB inh 0.6% and Rango release inh -5%.
COc1cc(C2C(C#N)=C(N)OC3=C2C(=O)CC(C)(C)C3)ccc1OCCN1CCOCC1 (stereo not given) was read as GLA inh pH 4.5 -24, Rango-impB inh -0.8%, Rango release inh 2% and miR-21 reporter -38%.
Screening COc1ccc(Nc2nnc(-c3ccc(C(N)=O)cc3)c3ccccc23)cc1 returned Rango-impB inh 0.4%, Rango release inh -11% and miR-21 reporter -4%.
Cc1[nH]c2ccccc2c1/C=N/Nc1nncn1N was read as GLA inh pH 4.5 3, Rango-impB inh -1.5%, Rango release inh 4% and miR-21 reporter -38%.
CC(=O)N(C)c1ccc(NC(=S)Nc2ccccc2)cc1 was read as GLA inh pH 4.5 -4, Rango-impB inh -1.1%, Rango release inh 9% and miR-21 reporter -10%.
Screening COCCCN1CC(=O)N2C(c3ccc(OC)c(OC)c3)c3[nH]c4ccccc4c3C[C@H]2C1=O (stereo not given in full) returned Rango-impB inh 3.5%, Rango release inh 0% and miR-21 reporter -9%.
O=C1CC(Sc2nnnn2-c2ccccc2)C(=O)N1c1cccc(Cl)c1 (stereo not given) was read as GLA inh pH 4.5 0, Rango-impB inh -0.1%, Rango release inh 50% and miR-21 reporter inconclusive.
For O=C(NCc1ccccc1)C1COc2ccccc2O1 (stereo not given) the results were GLA inh pH 4.5 -2, Rango-impB inh 1.2%, Rango release inh 2% and miR-21 reporter -45%.
CC(OC(=O)c1cc2sccc2n1C)C(=O)NCc1ccc(F)cc1 (stereo not given) was read as GLA inh pH 4.5 5, Rango-impB inh -1.2%, Rango release inh 7% and miR-21 reporter -1%.
Screening CCOCC(=O)Nc1nnc(Cc2ccc(OC)cc2)s1 returned GLA inh pH 4.5 -8, Rango-impB inh inconclusive, Rango release inh -6% and miR-21 reporter -9%.
Screening O=C1CCCC2=C1C(c1ccsc1)CC(=O)N2c1ccccc1F (stereo not given) returned GLA inh pH 4.5 8, Rango-impB inh 2.8%, Rango release inh -8% and miR-21 reporter -4%.
Screening Cc1ccc(F)c(Oc2cc(NN3CCCCC3)c([N+](=O)[O-])cc2[N+](=O)[O-])c1 returned Rango-impB inh -0.5%, Rango release inh 18% and miR-21 reporter -2%.
For COc1ccc2nc(Nc3nc(CSc4nnnn4-c4ccccc4)cc(=O)[nH]3)nc(C)c2c1 the results were GLA inh pH 4.5 -8, Rango-impB inh 0.6%, Rango release inh -1% and miR-21 reporter -2%.
CCCCOc1ccc(N=Cc2cccs2)cc1 was read as GLA inh pH 4.5 2, Rango-impB inh -1.1%, Rango release inh -2% and miR-21 reporter 0%.
For Cc1cc2c(cc1C)/C(=C\C(N)=O)NC(C)(C)C2 the results were GLA inh pH 4.5 -1, Rango-impB inh 0.5%, Rango release inh -1% and miR-21 reporter -4%.
Screening COc1ccc(NC(=O)CSc2nc(N)c3cc4c(nc3n2)CCCC4)c(OC)c1 returned GLA inh pH 4.5 -2, Rango-impB inh -0.8%, Rango release inh 6% and miR-21 reporter -56%.
For Cc1nc(NC(=S)NC(=O)c2ccco2)sc1C(=O)N(C)C the results were Rango-impB inh -0.4%, Rango release inh 3% and miR-21 reporter -31%.
`Cc1csc2sc(-c3ccnc(SCC(=O)NCc4ccccc4)n3)c(C)c12` gave GLA inh pH 4.5 -5, Rango-impB inh 4.7%, Rango release inh inconclusive and miR-21 reporter inconclusive.
CN(C(=O)c1coc(=O)c2ccccc12)c1ccccc1Cl was read as GLA inh pH 4.5 4, Rango-impB inh -3.3%, Rango release inh 1% and miR-21 reporter 24%.
CC(=O)Nc1ccc(O)cc1[N+](=O)[O-] was read as GLA inh pH 4.5 -3, Rango-impB inh inconclusive, Rango release inh -5% and miR-21 reporter 4%.
Screening CC(C)CC[C@@H](O)[C@](C)(O)C1CC[C@@]2(O)C3=CC(=O)[C@@H]4C[C@@H](O)[C@@H](O)C[C@]4(C)C3CC[C@]12C (stereo not given in full) returned Rango-impB inh 4.1% and Rango release inh -17%.
Screening O=C(NC1CC1)C1=C[C@@H](c2csc3ccccc23)C[C@@H](OCc2ccc(CO)cc2)O1 returned GLA inh pH 4.5 2, Rango-impB inh -0.4%, Rango release inh 2% and miR-21 reporter -1%.
`OC(CNc1nc(C(F)(F)F)nc2ccccc12)c1ccccc1` (stereo not given) gave Rango-impB inh 0.6%, Rango release inh -16% and miR-21 reporter 14%.
CC(=O)C1=C(C)N(c2ccccc2)C(=O)C1(NS(=O)(=O)c1ccc(N)cc1)C(F)(F)F (stereo not given) was read as GLA inh pH 4.5 2, Rango-impB inh 0.7%, Rango release inh 18% and miR-21 reporter -4%.
Screening CCOC(=O)C(Cc1c[nH]c2ccccc12)NC(=O)c1ccco1 (stereo not given) returned GLA inh pH 4.5 7, Rango-impB inh 0.8%, Rango release inh 1% and miR-21 reporter -6%.
Screening CCN1CCN(c2oc(COc3ccc(-c4ccccc4)cc3)nc2C#N)CC1 returned GLA inh pH 4.5 -7, Rango-impB inh -0.3%, Rango release inh 5% and miR-21 reporter 1%.
`Cc1cc2nc(CN(C)Cc3c(C(=O)N(C)C)nc4ccc(Cl)cn34)[nH]c2cc1C` gave GLA inh pH 4.5 6, Rango-impB inh 2.2%, Rango release inh -6% and miR-21 reporter -7%.
Screening COc1ccc(C(=O)N/N=C(\c2ccccc2)c2ccccn2)cc1 returned GLA inh pH 4.5 -9, Rango-impB inh inconclusive, Rango release inh 5% and miR-21 reporter 3%.

8 entries from above, sorted by molar mass, low to high:
For Cc1cc2c(cc1C)/C(=C\C(N)=O)NC(C)(C)C2 the results were GLA inh pH 4.5 -1, Rango-impB inh 0.5%, Rango release inh -1% and miR-21 reporter -4%.
Cc1[nH]c2ccccc2c1/C=N/Nc1nncn1N was read as GLA inh pH 4.5 3, Rango-impB inh -1.5%, Rango release inh 4% and miR-21 reporter -38%.
`CCOC(=O)C(C)Sc1ncc(-c2ccccc2)cn1` (stereo not given) gave GLA inh pH 4.5 2, Rango-impB inh -3.7%, Rango release inh 0% and miR-21 reporter -17%.
`O=C(CSc1nc(-c2ccccc2)cc(=O)[nH]1)Nc1ccccn1` gave GLA inh pH 4.5 3, Rango-impB inh -2.7%, Rango release inh -16% and miR-21 reporter 3%.
CC(OC(=O)c1cc2sccc2n1C)C(=O)NCc1ccc(F)cc1 (stereo not given) was read as GLA inh pH 4.5 5, Rango-impB inh -1.2%, Rango release inh 7% and miR-21 reporter -1%.
`Cc1csc2sc(-c3ccnc(SCC(=O)NCc4ccccc4)n3)c(C)c12` gave GLA inh pH 4.5 -5, Rango-impB inh 4.7%, Rango release inh inconclusive and miR-21 reporter inconclusive.
For COc1ccc2nc(Nc3nc(CSc4nnnn4-c4ccccc4)cc(=O)[nH]3)nc(C)c2c1 the results were GLA inh pH 4.5 -8, Rango-impB inh 0.6%, Rango release inh -1% and miR-21 reporter -2%.
For Cc1ccc(S(=O)(=O)N2CCN(C(=O)COC(=O)c3ncc(Cl)c(Cl)c3Cl)CC2)c(C)c1 the results were Rango-impB inh 7.0% and Rango release inh 10%.

Not all compounds are listed; rates above refer to the full screens.
